From PubChem BioAssay
Vif TR-FRET: inhibitors of Vif binding to APOBEC3G peptide, primary screen, biochemical, TR-FRET, GST-Vif 1-94, biotin-A3G peptide, dose response retest (AID 1117319); TR-FRET GST-Vif / biotin-A3G peptide binding; higher % means a stronger effect; test concentration not given here; strong numbers were not always called active; one-dose inhibition, %; IC50 in µM for titrated hits; actives 0.57% (n = 260,000);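 active means above the screen mean plus three standard deviations and confirmed in dose response; inconclusive means results disagree or hit not tested in dose response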;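 further: Vif residues 1-94 fused to GST binding biotinylated APOBEC3G peptide 110-148; 0% = full assay without inhibitor and 100% = GST in place of GST-Vif; retest series ran down from 100 µM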
ALR inh: blocks human ALR sulfhydryl oxidase activity. P55789. purified ALR, DTT oxidation, H2O2 HRP-luminol luminescence. actives 3.8% (n = 290,000). inhibition, % (no concentration beside the values);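 active means mean and each replicate at 75% or more; inconclusive means only one of the two met; inactive means neither met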;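 further: stock transfer was 7.5 nL into about 7.5 µL; 0% = neutral wells and 100% = wells with inactivated enzyme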
Target sequence (P55789 whole entry, looked up): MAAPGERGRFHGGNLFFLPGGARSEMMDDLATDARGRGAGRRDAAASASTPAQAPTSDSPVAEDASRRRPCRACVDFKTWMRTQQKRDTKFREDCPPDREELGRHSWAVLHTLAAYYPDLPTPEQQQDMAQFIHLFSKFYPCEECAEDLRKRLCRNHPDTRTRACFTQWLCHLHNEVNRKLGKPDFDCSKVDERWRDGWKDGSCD
Ecoli rRNA inh: inhibits bacterial ribosomal RNA function over humanized ribosomes; E. coli WT GFP vs humanized-ribosome RFP mutants, fluorescence, 24 h; hits give low values; DMSO median 0, no signal -100; GFP signal change (wild-type ribosome), % (test concentration not listed); actives 1.6% (n = 350,000);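 active means significant combined selectivity score with lowered wild-type GFP, culture density cut under 30%, mutant RFP and density less affected; inactive means any of these conditions unmet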; further: one replicate is shown; some compounds called inactive have numbers as strong as hits
FGF22 binding: FGF22 (human) thermal shift binding. Q9HCT0. recombinant FGF22 thermal shift, SYPRO orange fluorescence; percent of sucrose octasulfate shift, DMSO zero. calls only at 9.99 µM. actives 1.5% (n = 340,000). AID 651658;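 active means melting point raised past a set limit in the mean and every replicate; inconclusive means no clear call; three in four hits are not shown here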
Target sequence (Q9HCT0 whole entry, looked up): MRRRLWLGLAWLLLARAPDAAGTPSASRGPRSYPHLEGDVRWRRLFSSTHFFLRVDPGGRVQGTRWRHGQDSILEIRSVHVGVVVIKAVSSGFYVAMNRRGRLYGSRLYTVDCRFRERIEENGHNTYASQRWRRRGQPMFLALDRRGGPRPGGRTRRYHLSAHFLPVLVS
HNF4A DNA FP: change in binding of human HNF4 alpha to DNA; activity change, % at 10 µM; actives 0.3% (n = 360,000); AID 1224865; HNF4a-FITC DNA binding, fluorescence polarization, 1 h; in the data active means activity change above about 30%, passing the limit was not always enough;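 further: controls were the assay level and a saturating level of protein; the project sought stronger binding though the title names inhibitors; some compounds called inactive have numbers as strong as hits; positive values seem to mean higher polarization but the record does not say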
Target sequence (P41235 whole entry, looked up): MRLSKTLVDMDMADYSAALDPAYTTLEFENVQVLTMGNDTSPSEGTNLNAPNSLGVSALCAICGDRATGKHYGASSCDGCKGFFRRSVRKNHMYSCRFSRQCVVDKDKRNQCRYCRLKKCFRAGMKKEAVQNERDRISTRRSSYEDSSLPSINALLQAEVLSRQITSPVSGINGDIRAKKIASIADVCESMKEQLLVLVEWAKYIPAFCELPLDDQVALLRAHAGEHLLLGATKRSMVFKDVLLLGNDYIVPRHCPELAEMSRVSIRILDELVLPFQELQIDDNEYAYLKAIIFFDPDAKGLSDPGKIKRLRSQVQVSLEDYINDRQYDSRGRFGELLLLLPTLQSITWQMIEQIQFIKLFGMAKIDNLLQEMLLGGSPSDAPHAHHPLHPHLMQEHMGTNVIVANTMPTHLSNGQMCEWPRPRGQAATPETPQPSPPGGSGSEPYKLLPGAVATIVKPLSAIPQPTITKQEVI
E coli growth: E. coli growth inhibition; AID 1053175; Escherichia coli growth, OD600, 23 h; hits give low values; actives 0.21% (n = 330,000); OD600 absorbance (concentration not given with the values);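 active means OD600 absorbance below the run mean of sample wells minus 3.6 SD, in any replicate, cut at about 0.56 in these data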;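 further: stock transfer was 300 nL into about 60 µL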
MLL AF4-AF9 inh: inhibitors of human MLL-AF4/AF9 interaction. actives 0.47% (n = 350,000). inhibition, % at 10 µM. AID 651704. AlphaScreen, biotin-AF4 peptide binding to FLAG-AF9;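 active means every replicate reaching a set inhibition limit, whatever the replicate mean, cut at about 25% in these data; inconclusive means mean inhibition reaches that limit but some replicates miss it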;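 further: 0% = plate neutral control median and 100% = total signal loss; the record names both 10 and 1 µM as test concentration; the first replicate is given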
Ecoli rRNA inh OD600: recorded beside Ecoli rRNA inh, whose call it bears; OD600 change, %; measured here: OD600 growth;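 optical density of the mix in the first replicate; 0 = DMSO median and -100 = no signal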
Ecoli rRNA inh RFP: second read-out of Ecoli rRNA inh, no call of its own (marks repeat the call); RFP signal change, %; measured here: RFP humanized mutant strains;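 first replicate; 0 = DMSO median and -100 = no signal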
* hit, by the source's call; i = inactive; ? = inconclusive; . = no result given; & = joins results of further samples.

SMILES	Vif TR-FRET	ALR inh	Ecoli rRNA inh	Ecoli rRNA inh OD600	Ecoli rRNA inh RFP	FGF22 binding	HNF4A DNA FP	E coli growth	MLL AF4-AF9 inh
Cc1cc(NC(=O)C2CCCN2C(=O)Nc2cccc(Cl)c2)ccc1-n1cnnn1 (centres undefined)	.	-18	-16	-1	-0.6	i	-1.9	0.66	-2.1
C[C@@H]1CCCCO[C@@H](CN(C)C(=O)NC2CCCCC2)[C@@H](C)CN([C@H](C)CO)C(=O)c2cc(NC(=O)Nc3ccc(F)cc3)ccc2O1	.	.	3	7	-0.2	i	.	.	2.3
CSCCC(NC(=O)COc1ccccc1)C(=O)NC1CCC(C)CC1 (centres undefined)	.	.	-3	8	-4.2	.	-3.8	.	-8.9
CN1CCCN(C(=O)c2ccc(Cl)s2)CC1	.	-3	2	5	-1.3	i	-0.7	0.7	0.7
CC1CCCC(C)N1/N=C/c1ccccc1C(=O)O (centres undefined)	1%	2	9	-1	1.2	i	3.6	.	-0.4
N#CCc1ccc(NC(=O)/C=C/c2ccc([N+](=O)[O-])o2)cc1	-1%	.	.	.	.	.	-0.6	0.41*	.
COc1cccc(NC(=S)NCc2cccs2)c1	-7%	-1	.	.	.	.	-0.8	0.69	.
C[C@H](CO)N1C[C@H](C)[C@@H](CN(C)Cc2ccc(Cl)c(Cl)c2)Oc2ccc(NC(=O)Cn3cnnn3)cc2CC1=O	.	.	-29	-58	25	i	.	.	7.3
COc1ccccc1C#Cc1ccc2c(c1)O[C@@H](CN(C)C(C)=O)[C@H](C)CN([C@@H](C)CO)S2(=O)=O	.	.	-17	-30	3.4	i	.	.	-1.9
CC(/C=C1\N=C(SCc2ccccc2Cl)SC1=O)=C\c1ccccc1	-1%	99*	.	.	.	.	2.2	0.72	.
CC(Nc1nc(N2CCN(S(C)(=O)=O)CC2)nc2ccccc12)c1ccccc1 (centres undefined)	?	1	.	.	.	.	3.0	0.67	.
CC(C)c1ccc(NC(=O)C2Cc3c(-c4ccc(Cl)cc4)ccnc3O2)cc1 (centres undefined)	.	.	6	18	4.5	i	-0.2	.	0.3
COc1ccc2c(c1)c1nc3n(c(=O)c1n2CC(=O)Nc1ccccc1)CCCS3	.	.	8	15	1.9	i	-0.4	0.7	-1.8
COc1ccc(-c2noc(CCC(=O)N3CCN(c4ccc(Br)cc4)CC3)n2)cc1	-8%	.	-6	12	-4.8	i	1.5	0.71	-1.4
COC(=O)C[C@@H]1CC[C@@H](NC(C)=O)[C@@H](CO)O1	.	.	7	13	2.9	.	-0.3	.	-1.1
COC(=O)c1cnn(-c2ccc(Cl)cc2)c1/C=N/NC(N)=S	.	9	-5	-1	-2.7	i	0.1	.	3.6
CCCCOC(=O)Nc1nnc(CC)s1	0%	.	.	.	.	.	1.8	0.65	.
CC1(C)NC(=O)N(CC(O)CN2CCCCC2)C1=O (centres undefined)	-2%	4	.	.	.	.	-3.2	0.66	.
c1ccc(N2CCCCC2)c(NC2=NCCC2)c1	0%	2	.	.	.	.	0.3	0.73	.
Cc1cccc(CS(=O)(=O)c2ncc(Cl)c(C(=O)NCc3ccccc3)n2)c1	.	-1	4	-5	-0.3	i	-0.2	0.69	-1.3
N#Cc1cc2cc3c(cc2nc1Cl)OCCO3	-15%	.	5	3	-0.3	i	18	.	-1.7
O=C(Cn1nnc2ccccc2c1=O)N[C@@H](Cc1ccccc1)C(=O)O	0%	3	9	5	-5.3	i	1.3	0.67	-2.0
Cc1ccc(N2C(=O)Nc3ccccc3C2(O)C(=O)N2CCN(c3ccccn3)CC2)cc1C (centres undefined)	-7%	-17	-2	8	3.1	i	0.8	0.71	-5.5
Cc1csc2ncnc(NC3CCN(Cc4ccccc4)CC3)c12	.	-1	-5	-22	3.1	i	-2.4	0.65	-1.0
Cc1ccc(C)c(OCc2cc(C(=O)NC3CCOC(C)(C)C3)no2)c1 (centres undefined)	0%	-5	5	17	2.1	i	1.3	0.67	-0.7
Next section
SMILES	Vif TR-FRET	ALR inh	Ecoli rRNA inh	Ecoli rRNA inh OD600	Ecoli rRNA inh RFP	FGF22 binding	HNF4A DNA FP	E coli growth	MLL AF4-AF9 inh
Cc1n[nH]c(C)c1CCC(=O)N/N=C/c1cccs1	7%	1	.	.	.	i	-3.8	.	-4.4
COC(=O)c1ccc(C#Cc2ccccc2)o1	18%	0	-2	0	-3.6	i	-1.3	0.64	-8.3
CO[C@@H]1CN(C)C(=O)c2cc(NC(=O)C3CC3)ccc2OC[C@@H](C)N(C(=O)c2ccccc2F)C[C@H]1C	.	.	-1	-6	0.7	i	.	.	-0.4
CC(C)COc1ccc(C(=O)NC(CC(C)C)C(=O)O)cc1 (centres undefined)	-2%	1	.	.	.	.	0.3	0.77	.
Cc1cc(-c2ccc(S(=O)(=O)N3CCc4ccccc4C3)s2)on1	-5%	-6	12	19	1.2	i	-1.5	0.66	0.6
CCOCCCNC(=O)c1cccs1	2%	-3	.	.	.	.	-0.6	0.68	.
CC1(c2cccc(N)c2)OCCO1	.	.	14	11	-1.4	i	-1.6	.	-1.1
O=C(NCc1ccncc1)c1ccccc1Nc1ccc(SC(F)F)cc1	.	35	-62	-79	-22	i	-2.9	0.68	4.8
Nc1nnc(SCC(=O)Nc2cc(S(=O)(=O)N3CCOCC3)ccc2Cl)s1	9%	-3	2	1	2.0	i	-1.3	0.7	-6.1
CN(C)S(=O)(=O)c1cc(NC(=O)COC(=O)C2COc3ccccc3O2)ccc1Cl (centres undefined)	-4%	-8	10	6	1.5	i	0.9	0.64	-1.1
COc1ccccc1-c1cnc(C(O)c2ccccc2)[nH]1 (centres undefined)	.	.	9	3	-1.2	i	1.2	.	0.3
COc1cc(CNn2cn[nH]c2=S)cc(Br)c1OCc1ccccc1F	-4%	-31	-55	-74	-22	i	-1.0	0.66	-4.8
CCN(CC)C(=O)Cn1cc(SCC(=O)NCc2ccco2)c2ccccc21	-4%	6	1	-2	-3.8	i	2.6	0.73	-2.0
C/C=C/c1ccc2c(c1)O[C@@H](CN(C)C(=O)c1ccccc1F)[C@@H](C)CN([C@H](C)CO)S2(=O)=O	.	.	-3	-10	-8.0	i	.	.	2.0
Nc1ccn([C@@H]2O[C@H](CNCC3=CCOc4ccc(O)cc43)[C@@H](O)[C@H]2O)c(=O)n1	-4%	.	7	0	0.4	i	-0.5	.	-0.9
O=C(NCC(=O)N(CC1CCCO1)C1(C(=O)NC2CCCCC2)CCCCC1)c1ccccc1 (centres undefined)	-3%	-16	.	.	.	.	-3.1	0.69	.
CCC(=O)Nc1ccc2c(c1)OC[C@@H](C)N(C(=O)NC(C)C)C[C@H](C)[C@H](OC)CN(C)C2=O	.	.	1	3	1.1	i	.	.	-0.7
Cc1ncsc1CCOC(=O)C1C2CC3CC(C2)CC1C3 (centres undefined)	33%	-2	-55	-73	-15	i	0.5	0.71	1.8
CSCC[C@H](NC(=O)C1CCN(S(=O)(=O)c2ccccc2)CC1)C(=O)NC1CC1	.	-1	0	2	-1.0	i	-3.4	0.67	2.0
COc1cc(OC)c2c(c1)O/C(=C\c1ccccc1)C2=O	.	14	-25	-29	-3.3	i	-0.6	0.63	17
Cn1ccc2c(-c3ccc4c(c3)OCCO4)cc3c(c21)C1CCC3C1 (centres undefined)	.	.	3	-9	3.2	i	1.6	.	18
O=C(Nc1ccc2nc(C(F)(F)F)[nH]c2c1)[C@@H]1O[C@H](CO)[C@@H](O)[C@H]1O	.	.	6	16	1.9	i	-1.5	.	-2.9
COc1cc(C(=O)NCc2ccc(-c3nc4ccccc4o3)cc2)cc(OC)c1OC	-6%	.	.	.	.	.	3.2	0.74	.
CN1c2ccccc2-c2ccccc2S1(=O)=O	.	.	-24	-16	-18	i	2.8	.	-19
O=C(NCC[C@H]1CC[C@@H](NS(=O)(=O)c2cccc(F)c2)[C@@H](CO)O1)Nc1cc(F)ccc1F	.	.	-6	-3	-0.2	i	.	.	-1.9

One compound at a time, from the list above. Values in the order: Vif TR-FRET, ALR inh, Ecoli rRNA inh, Ecoli rRNA inh OD600, Ecoli rRNA inh RFP, FGF22 binding, HNF4A DNA FP, E coli growth, MLL AF4-AF9 inh
CC1(C)NC(=O)N(CC(O)CN2CCCCC2)C1=O (centres undefined) as listed: -2%, 4, ., ., ., ., -3.2, 0.66, .
O=C(NCc1ccncc1)c1ccccc1Nc1ccc(SC(F)F)cc1 as listed: ., 35, -62, -79, -22, i, -2.9, 0.68, 4.8
CCCCOC(=O)Nc1nnc(CC)s1 as listed: 0%, ., ., ., ., ., 1.8, 0.65, .
CSCCC(NC(=O)COc1ccccc1)C(=O)NC1CCC(C)CC1 (centres undefined) as listed: ., ., -3, 8, -4.2, ., -3.8, ., -8.9

More records follow:
SMILES	Vif TR-FRET	ALR inh	Ecoli rRNA inh	Ecoli rRNA inh OD600	Ecoli rRNA inh RFP	FGF22 binding	HNF4A DNA FP	E coli growth	MLL AF4-AF9 inh
Cc1ccc(C)c(OCc2ccc(C(=O)N3N=C(C(F)F)CC3(O)C(F)F)o2)c1 (centres undefined)	8%	-3	.	.	.	.	-0.2	0.7	.
COC(=O)[C@H](NCc1ccc(OC)c(B(O)O)c1)C(C)C	-1%	.	13	7	7.8	i	-0.7	.	-3.1
CCN1/C(=C2/SC(=S)N(NC(C)=O)C2=O)Sc2ccccc21	.	3	.	.	.	i	14	0.7	0.0
C[C@H](CO)N1C[C@H](C)[C@@H](CN(C)C(=O)C2CC2)Oc2cc(C3=CCCCC3)ccc2S1(=O)=O	.	.	-2	-12	3.5	i	.	.	-2.5
Cc1ccc(OCCOCCNC(C)(C)C)c([N+](=O)[O-])c1	-10%	-3	.	.	.	.	5.0	0.71	.
CC(CCl)OC(C)CCl (centres undefined)	.	14	6	5	-0.4	i	3.2	0.67	.
CCOC(=O)CC1=C(C(=O)OCC)C(c2ccc(OC)c(OC)c2)C(C#N)=C(N)O1 (centres undefined)	-2%	-1	.	.	.	.	-0.2	0.68	.
CCc1ccc(-c2cc(C)no2)cc1S(=O)(=O)NCc1ccco1	.	1	-7	-17	-0.9	i	1.0	0.7	0.9
O=C(OCC(=O)N1CCCC1=O)C1CCN(S(=O)(=O)c2ccc(Cl)c(C(F)(F)F)c2)CC1	1%	-4	2	-7	0.5	i	0.5	0.64	0.5
COc1ccccc1N1CCN(C(=O)C2CCC(Cn3c(=S)[nH]c4ccccc4c3=O)CC2)CC1 (centres undefined)	-3%&-4%	-4	.	.	.	.	-1.4	0.69	.
O=C(CC1Sc2ccccc2NC1=O)Nc1cccnc1 (centres undefined)	-5%	-16	0	0	0.5	i	-1.8	.	2.0
O=C(C[C@H]1CC[C@@H](NC(=O)c2ccccn2)[C@@H](CO)O1)NCc1cccc(F)c1	.	.	-2	2	-3.2	i	.	.	-1.5
C[C@@H]1CN([C@@H](C)CO)C(=O)c2cc(NC(=O)Cc3ccccc3)ccc2O[C@@H]1CN(C)S(=O)(=O)c1cn(C)cn1	.	.	-2	1	1.4	i	.	.	-3.4
COc1cccc(NC(=O)C(=O)c2cn(CC(=O)N3CCOCC3)c3ccccc23)c1	.	4	0	-1	2.0	i	1.1	0.7	4.6
O=C(CN1CCCCCC1)Nc1ccccc1C(=O)Nc1ccccc1	-5%	3	9	5	-0.8	i	0.3	0.69	-0.6
CCOc1ccc(CN2CCN(C(=O)c3cccc(F)c3)CC2)cc1	5%	1	-9	-5	-5.3	i	-1.1	0.68	4.6
CCN1CCN(C(CNS(=O)(=O)c2cccs2)c2cccnc2)CC1 (centres undefined)	-5%	-5	11	7	0.4	i	2.4	0.68	-4.7
C[C@H](CO)N1C[C@H](C)[C@H](CN(C)C(=O)C2CCCCC2)Oc2ncc(-c3ccncc3)cc2C1=O	.	.	-1	-4	-2.0	i	.	.	-2.0

Only part of the results is shown. The share of hits here may be higher or lower than overall.
